Choline anaer gr – growth inhibitors of anaerobic choline-fed gram-negatives, minimal medium, absorbance; actives 0.2% (n = 55,000); calls only; AID 1963822, 2024; Gram-negative bacterium anaerobic choline minimal medium; hits give low values; many inactives read as strong as hits in the columns shown;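 active = growth z-score on choline under -2 at 7 or 20 h with little or no fall on glycerol, limits in tiers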;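 note: stock transfer was 300 nL into about 50 µL; the organism is E. coli; final concentration not given here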
Choline anaer gr early – second read-out of Choline anaer gr, no call of its own (marks repeat the call); z-score; measured here: choline growth z-score, timepoint 1;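 score of optical density at 7 h as mean of two plates; lower means less growth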
Active calls of the source: *; i = inactive; & = joins results of further samples.

SMILES | Choline anaer gr | Choline anaer gr early
Cc1ccc(-c2nc3ccccn3c2NC(=O)c2ccc(Cl)cc2)cc1 | i | -0.11
CC1CCN(C(=O)C(NS(=O)(=O)c2cccc3nsnc23)c2ccccc2)CC1 (stereo not given) | i | 1
COc1ccccc1NC(=O)N1CCN(c2nc3ccccc3n(Cc3ccccc3)c2=O)CC1 | i | 2.5
Cc1ccc(S(=O)(=O)Nc2ccc(-c3ccc(N4CCCC4)nn3)cc2)c(C)c1 | i | -1.4
CCCCNC(=O)c1cccc(Nc2ncc(-c3cccc(C)c3)cn2)c1 | i | -0.14
O=S(=O)(c1cccc(F)c1)N1CC(OCc2cccc(F)c2)C1 | i | 0.55
Cc1sc(-n2cccc2CNCCC(C)C)c(C(=O)O)c1C | i | -0.14
CCC(C(=O)NCCN1CCN(C)CC1)N1C(=O)CCCc2ccccc21 (stereo not given) | i | 0.15
CCc1nnc(NC(=O)COc2ccccc2-c2nc(C)no2)s1 | i | -0.31
Cc1noc(C)c1C1CCCN1Cc1cccc(F)c1 (stereo not given) | i | -1.1
O=C(CN1C(=O)CSc2ccc(C(=O)N3CCCC3)cc21)NCc1ccccc1 | i | 0.15
O=C1CC(c2ccc3c(c2)OCO3)c2c(-c3ccccc3)nn(-c3ccccc3)c2N1 (stereo not given) | i | -0.79

Two records picked at random from the list so far:
SMILES | Choline anaer gr | Choline anaer gr early
Cc1ccc(S(=O)(=O)Nc2ccc(-c3ccc(N4CCCC4)nn3)cc2)c(C)c1 | i | -1.4
COc1ccccc1NC(=O)N1CCN(c2nc3ccccc3n(Cc3ccccc3)c2=O)CC1 | i | 2.5

New compounds follow:
SMILES | Choline anaer gr | Choline anaer gr early
O=C(NC1CCCc2ccccc21)C1CCN(C(=O)c2cccn2-c2cccnc2)CC1 (stereo not given) | i | -0.34
CCS(=O)(=O)c1ccc(-c2ccc(NC(=O)c3ccccc3F)cc2)nn1 | i | -0.21
COC(=O)c1ccc2c(=O)n(-c3ccc(OC)c(OC)c3)c(N3CCOCC3)nc2c1 | i | 0.01
Cc1ccc(S(=O)(=O)N(Cc2nc3nc(C)cc(=O)n3[nH]2)c2ccc(F)cc2)cc1 | i | 0.08
CCNc1nc(Nc2ccccc2)c2cnn(C)c2n1 | i | -0.58
CCOc1ccccc1C1Nc2ccc(Cl)cc2[C@H]2OCCC[C@@H]12 (stereo not given in full) | i | 0.53
COc1ccc(-c2noc(-c3ccccc3OCC(=O)Nc3nnc(C(C)C)s3)n2)cc1 | i | 0.26
CCOc1c(Nc2ccc(Cl)cc2C)c(=O)c1=O | i | -0.58
CCOC(=O)c1c(C)[nH]c(C(=O)N2CCC(C(C)C(=O)NCc3ccc4c(c3)OCO4)CC2)c1C (stereo not given) | i | -0.06
Cc1nn(C)cc1CNC(=O)c1cnn2c(C(F)F)cc(-c3ccccc3)nc12 | i | 0.15
Cc1ccc2[nH]cc(CCNC(=O)c3c(-c4ccccn4)noc3C)c2c1 | i | 0.18
NC(=NCCc1ccc(I)cc1)SCCCC1CNCN1 (stereo not given) | i | 0.7
CC(C)Cc1cc(-c2nnc3sc(-c4ccc(F)cc4)nn23)n[nH]1 | i | 1.1
Cc1noc(C)c1CSc1nc2c(sc3ncccc32)c(=O)n1CC(C)C | i | 0.53
CCOCCCNC(=O)N1c2ccccc2NC2=C(C(=O)CC(C)(C)C2)C1c1ccc(F)cc1 (stereo not given) | i | -0.46
CN(CCc1noc(-c2ccc(C(=O)NCc3ccccc3)cc2)n1)C(=O)c1ccccc1 | i | 0.55
C=CCSc1ncc(Cl)c(C(=O)Nc2sc3c(c2C(=O)OCC)CCCC3)n1 | i | 0.21
O=C(c1c(-c2ccc(F)cc2)nc2n1CCS2(=O)=O)N1CCOCC1 | i | 0.37
O=C(Nc1ccc(Br)cc1F)Nc1cc(NC(=O)c2ccccc2)ccc1N1CCCC1 | i | 0.27
CC1(C(=O)NCc2cccc(F)c2)CCCN(C(=O)c2ccccc2Cl)C1 (stereo not given) | i | -0.5
CCSc1nn(CC(=O)Nc2ccc(Br)cc2F)c(N)c1S(=O)(=O)c1ccc(OC)cc1 | i | 0.73
O=c1n(Cc2ccc(Cl)cc2)nc2c(S(=O)(=O)N3CCOCC3)cccn12 | i | 0.21
CCOCCCNC(=O)CC1CCN(S(=O)(=O)c2cccs2)CC1 | i | -0.12
O=C(NC1CC1)c1ccc(Nc2ccnc(-c3ccc(F)cc3)n2)cc1 | i | -0.14
Cc1nc2nc(N(CCOc3ccccc3)S(=O)(=O)c3ccc(Cl)cc3)nn2c(C)c1Cl | i | 0.24
Cc1cc(C)n2ncc(C(=O)Nc3ccc(F)cc3)c2n1 | i | 0.34
CCOC(=O)c1cc(C)nc2c1c(=O)n(Cc1nc(-c3cc(C)ccc3C)oc1C)c(=O)n2C | i | -1.2
COc1cccc(N2CCN(C(=O)C3CCN(c4ccc5nnc(C)n5n4)CC3)CC2)c1 | i | 0.84
O=C1C(=O)N(C2CCN(S(=O)(=O)Cc3ccccc3)CC2)CCN1Cc1cccc(F)c1 | i | 1.3
O=c1c(S(=O)(=O)c2ccc(F)cc2)c[nH]c2c(F)cc(Cl)cc12 | i | 0.14
C=CCSc1nc2c(c(=O)[nH]1)C(c1sccc1C)C(C(=O)OC)=C(C)N2 (stereo not given) | i | 0.05
COc1ccc(NC(=O)Cn2ccc3ccc(-c4nnc(C)o4)cc32)c(OC)c1 | i | -0.05
COC(=O)c1c(NC(=O)N2CCCC2c2ccc(OC)cc2)sc2c1CCCC2 (stereo not given) | i | 1.2
Cc1oc2ncn(CCC(=O)N3CCCC3)c(=O)c2c1C | i | -0.58
O=C(CC1CCN(S(=O)(=O)c2ccccc2)CC1)N1CCN(c2ccccc2)CC1 | i | 1.2
Cn1c(=O)n(CC(=O)O)c(=O)c2c1nc1n2CCCN1c1ccc(Br)cc1 | i | 0.9
Cc1nc2cccnc2n1-c1cc(C(=O)NCc2ccccc2Cl)ccc1Cl | i | 1
Cc1nc(-c2cc3ccccc3nc2NCC2CCCO2)no1 (stereo not given) | i | -0.59
c1ccc(Cc2nn3c(CSc4ccccc4)nnc3s2)cc1 | i | 0.45
CCC(NC(C)C)C(O)c1ccc(O)c(O)c1 (stereo not given) | i | 0.53&0.15
O=S(=O)(c1ccc(Br)cc1)c1nc(-c2ccccc2)oc1N1CCOCC1 | i | 0.3
c1nc2nc3c(c(NC4CCCCCC4)n2n1)CCC3 | i | 0.02
COc1ccc(-n2c(SCC(=O)c3c[nH]c4ccccc34)nc3cc(C(=O)NC(C)C)ccc3c2=O)cc1 | i | -0.23
N=C(N)N | i | 0.5&0.34
CCc1ccc(NCc2cc(=O)n3[nH]c(NCc4ccccc4)nc3n2)cc1 | i | 0.19
COC(=O)CSc1nc2sc3c(c2c(=O)n1-c1ccc(C)cc1)CCC3 | i | -0.74
Cn1c(=O)n(Cc2ccccc2)c(=O)c2c1nc(N1CCNCC1)n2Cc1ccccc1 | i | -0.77
Cc1cccc(C2CC(=O)Nc3cc4c(cc32)OCO4)c1 (stereo not given) | i | 0.86
COc1ccc(NC(=O)COc2ccccc2Cl)cc1CN1CCn2c(nc3ccccc32)C1 | i | 1.3
CCOc1nc2c(c(C)nn2-c2ccc(C)cc2)c(C)c1CCC(=O)NCc1ccc(OC)cc1 | i | 1.4
COc1ccc(-c2nn3c(N4CCN(C5CCCCC5)CC4)cc(C)nc3c2C)cc1OC | i | 0.34
Cc1cccc(C)c1NC(=O)C1CCCN(S(=O)(=O)c2cccc3cccnc23)C1 (stereo not given) | i | -0.37
CCCc1c(C)nc2nc[nH]n2c1=O | i | -1.5
COc1ccc2[nH]cc(CCNC(=O)c3ccc4c(c3)nc(C)c(=O)n4Cc3ccccc3)c2c1 | i | -0.3
CCOC(=O)C1CCN(C(=O)c2cc(NC(=O)c3ccccc3Cl)cnc2N2CCNCC2)CC1 | i | 0.22
CCOC(=O)c1c(S(=O)(=O)N2CCC(C(=O)Nc3cc(OC)ccc3OC)CC2)c(C)n(C)c1C | i | 0.59
Cc1noc(Cn2c(=O)c3ccccc3n(CC(=O)Nc3cccc(Cl)c3)c2=O)n1 | i | 1.2
Cc1ccc(Cl)cc1N1CCN(C(=O)CCC(=O)N2CCSc3ccccc32)CC1 | i | 1.4
CN(CC(=O)NCC1CCCO1)S(=O)(=O)c1ccc2c(c1)CCCC(=O)N2 (stereo not given) | i | -0.19
Cc1ccccc1CNC(=O)c1ccc(-c2nc(CCN(C)C(=O)c3ccc(Cl)cc3)no2)cc1 | i | 1.2

The list goes on, starting with the last 5 of the part before.
SMILES | Choline anaer gr | Choline anaer gr early
CCOC(=O)c1c(S(=O)(=O)N2CCC(C(=O)Nc3cc(OC)ccc3OC)CC2)c(C)n(C)c1C | i | 0.59
Cc1noc(Cn2c(=O)c3ccccc3n(CC(=O)Nc3cccc(Cl)c3)c2=O)n1 | i | 1.2
Cc1ccc(Cl)cc1N1CCN(C(=O)CCC(=O)N2CCSc3ccccc32)CC1 | i | 1.4
CN(CC(=O)NCC1CCCO1)S(=O)(=O)c1ccc2c(c1)CCCC(=O)N2 (stereo not given) | i | -0.19
Cc1ccccc1CNC(=O)c1ccc(-c2nc(CCN(C)C(=O)c3ccc(Cl)cc3)no2)cc1 | i | 1.2
CCCS(=O)(=O)c1nc2ccc(NS(=O)(=O)c3c(C)noc3C)cc2s1 | i | -0.21
CCn1c(=O)c(-c2noc(C(=O)N3CCN(C)CC3)n2)nn(-c2ccc(F)cc2)c1=O | i | -0.2
COc1ccc(-c2cc(-c3ccccc3)nc3c(C(=O)Nc4ccc(F)cc4)cnn23)cc1 | i | 0.36
COc1ccccc1C(NC(=O)Cc1ccccc1)c1ccc2cccnc2c1O (stereo not given) | i | 0.17
Cc1cccc(-n2nnc(C(=O)Nc3ccc(S(N)(=O)=O)cc3)c2C)c1 | i | -0.28
CCOC(=O)c1[nH]c(C)c(CCC(=O)N2CCCC(C(=O)NC3CC3)C2)c1C (stereo not given) | i | 0.73
Cc1ccc(-c2noc(Cc3nc(-c4ccc(C)cc4C)cs3)n2)cc1 | i | 0.15
O=c1nc(SCc2ccccc2)c2c(n1C1CCCCC1)CCC2 | i | 0.56
CCOc1ccc(NC(=O)c2cccn2-c2cccnc2)cc1 | i | 0.45
COc1ccc(OC)c(NC(=O)CN2C(=O)C(C)(C)c3cc(S(=O)(=O)N4CCCC4)ccc32)c1 | i | -0.51
Cc1nnc(-c2cc3ccccc3n2CC(=O)Nc2ccc(C(N)=O)cc2)o1 | i | -0.33
Cc1ccc(-c2cc(NC(=O)c3oc4cc(C)cc(C)c4c3C)on2)cc1 | i | 1.8
Cc1ccc2cc3c(nc2c1)N(C(=O)CN1C(=O)c2ccccc2C1=O)CC3 | i | 0.12
CC12CN3CC(C)(CN(C1)C3c1ccc(OCc3ccccc3)cc1)C2 (stereo not given) | i | 0.93
Cc1ccc(C(=O)CN(c2nc3nc(C)cc(C)n3n2)S(=O)(=O)c2ccc(C)cc2)cc1 | i | 0.14
CCN(Cc1cc2ccccc2[nH]c1=O)S(C)(=O)=O | i | -0.58
Cc1cccc(Nc2ccccc2C(=O)O)c1C | i | 0.15&0.05&0.11
COc1cc(Nc2ncc3c(n2)CCN(S(=O)(=O)c2cccc4nsnc24)C3)cc(OC)c1 | i | 0.55
COc1ccc(-n2c(C)cc(CNS(=O)(=O)c3ccc(OC)c(OC)c3)c2C)cc1 | i | -0.21
C=CCn1c(=O)c2sc(N3CCCCC3)nc2n(CC(=O)Nc2cc(F)cc(F)c2)c1=O | i | -1.2
CCCNC(=O)c1ccccc1OCc1nc(-c2ccccc2)no1 | i | 0.12
COCCCN1CCc2nc(SCc3ccc(F)cc3Cl)[nH]c(=O)c2C1 | i | -0.33
CN(C)c1nc2ncnc(SCC(=O)Nc3ccc(F)cc3F)c2s1 | i | -0.16
O=C(CSc1nnc(-c2ccncc2)o1)NCc1ccc2c(c1)OCO2 | i | -0.92
C=CCN(Cc1nc(-c2cccc(C)c2)no1)C(=O)Nc1ccc(Cl)cc1 | i | 1.9
Cc1ccc(NC(=O)Cn2c3ccccc3n3c(=O)cc(-c4ccccc4)nc23)cc1 | i | -0.69
O=C(CSc1nc2ncccc2n2cccc12)NCCc1ccccc1 | i | 1.4
O=C(Nc1cc(F)ccc1F)c1cc(-c2cccnc2)on1 | i | -0.24
CCN1C(SCC(=O)N2CCCC2)=NS(=O)(=O)c2ccccc21 | i | 1.2
CCOc1cc(CNCCSc2nnnn2C)cc(Cl)c1OCc1ccccc1 | i | -0.05
O=c1c2ccccc2n2c(=O)n(Cc3ccccc3Cl)nc2n1Cc1ccccc1 | i | -1.2
Cc1nn2c(-c3ccc4c(c3)OCO4)ccnc2c1-c1ccc(F)cc1 | i | 0.26
COc1ccccc1-c1cc(C(=O)N2CCCN(c3ccc(=O)n(-c4ccccc4)n3)CC2)[nH]n1 | i | -1.8
CCOC(=O)c1c(C)[nH]c(NC(=O)NC2CCCCC2)c1C | i | -0.74
O=C(CN1CCCN(Cc2cccc(F)c2)S1(=O)=O)Nc1ccc2c(c1)OCO2 | i | -0.41
CCOc1ccc2c(c1)cc(C(=O)N1CCOCC1)n2C | i | -0.6

Laid out differently: entries from further up
Structure: CCOc1nc2c(c(C)nn2-c2ccc(C)cc2)c(C)c1CCC(=O)NCc1ccc(OC)cc1
  Choline anaer gr: i
  Choline anaer gr early: 1.4
Structure: COc1ccc(-c2nn3c(N4CCN(C5CCCCC5)CC4)cc(C)nc3c2C)cc1OC
  Choline anaer gr: i
  Choline anaer gr early: 0.34
Structure: Cc1cccc(C)c1NC(=O)C1CCCN(S(=O)(=O)c2cccc3cccnc23)C1 (stereo not given)
  Choline anaer gr: i
  Choline anaer gr early: -0.37

Other results follow:
SMILES | Choline anaer gr | Choline anaer gr early
COc1ccc(Cl)cc1NC(=O)CSC1=NN2CCCC(=O)N=C2S1 | i | 0.08
O=c1ccn(-c2ccc(Cl)cc2)nc1-c1nc(-c2ccccc2)no1 | i | 0.59
Cc1cccc(NC(=O)NCCc2csc3c2CCCC3)c1 | i | 0.96
O=S(=O)(c1ccc(F)cc1)c1nc(-c2ccc(F)cc2)oc1NCC1CCCO1 (stereo not given) | i | 0.57
OCCNCc1ccc(-c2ccc(F)cc2)o1 | i | -0.21
Cn1c(C2=C(O)CN(c3ccc(F)cc3)C2=N)nc2ccccc21 | i | -1.7

High-throughput results: PubChem BioAssay, ICCB-Longwood Screening Facility, Harvard Medical School

This is a subset (hit frequency here may not be typical).
